PKD1 inh = inhibitors of human PKD1 kinase; inhibition, %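 (about 10 µM by stock and volumes)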; Q15139; PKD1 kinase fluorescence polarization assay; actives 0.056% (n = 200,000);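 active = inhibition of 50% or more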;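 also: controls were vehicle for no effect and a reference inhibitor for full effect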
HSV replic up = HSV replication enhancement; HSV replication augmentation in cells, fold increase; maximum fold increase; actives 0.005% (n = 220,000); AID 1956;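 active = peak rise of 1.5-fold or more in the series; tested in PC3 cells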;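 also: first round at 10 µM; read as green reporter fluorescence; hits show the peak of a series up to 25 µM; 1 = signal of infected wells without compound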
RGS16-Gao = RGS16-Galphao interaction regulator (human); O15492+P09471; bead-based flow cytometry RGS16-Galphao binding, fluorescence; actives lie on both sides; binding response (% of control), % at 10 µM; actives 0.38% (n = 220,000); AID 1441;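 active = below 25% or above 175%, edge rows of some plates excepted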;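 also: Galphao activated by GDP with aluminum fluoride before binding; 100% = wells without compound and 0% = beads without RGS; some results beyond the cut were filed as inactive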
Target sequence (O15492 whole entry, looked up): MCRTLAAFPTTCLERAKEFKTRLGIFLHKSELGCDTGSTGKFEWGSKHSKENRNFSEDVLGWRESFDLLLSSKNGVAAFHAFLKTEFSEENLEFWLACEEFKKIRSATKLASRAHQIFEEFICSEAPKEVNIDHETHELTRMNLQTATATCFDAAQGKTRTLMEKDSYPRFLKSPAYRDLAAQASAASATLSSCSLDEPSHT
Target sequence (P09471 whole entry, looked up): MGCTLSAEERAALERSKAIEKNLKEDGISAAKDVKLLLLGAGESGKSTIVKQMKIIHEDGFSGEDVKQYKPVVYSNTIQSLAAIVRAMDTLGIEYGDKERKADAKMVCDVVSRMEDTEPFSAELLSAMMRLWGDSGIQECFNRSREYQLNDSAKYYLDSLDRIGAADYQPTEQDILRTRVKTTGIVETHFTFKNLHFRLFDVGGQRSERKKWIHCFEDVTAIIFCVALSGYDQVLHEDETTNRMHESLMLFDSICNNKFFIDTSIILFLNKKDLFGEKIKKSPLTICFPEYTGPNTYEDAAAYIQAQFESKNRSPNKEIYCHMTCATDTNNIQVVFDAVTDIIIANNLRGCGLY
GALR2 agonist = activates the human galanin receptor 2; GALR2-expressing cells, agonist activation read-out; activation, %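 (tested at 5 µM)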; AID 803; O43603; actives 0.48% (n = 140,000);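 active = above mean plus 3 SD of all compounds, about 5% in these data, not always enough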;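 also: 0% = vehicle buffer wells and 100% = reference agonist at full effect; tested in CHO reporter cells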
Target sequence (O43603 whole entry, looked up): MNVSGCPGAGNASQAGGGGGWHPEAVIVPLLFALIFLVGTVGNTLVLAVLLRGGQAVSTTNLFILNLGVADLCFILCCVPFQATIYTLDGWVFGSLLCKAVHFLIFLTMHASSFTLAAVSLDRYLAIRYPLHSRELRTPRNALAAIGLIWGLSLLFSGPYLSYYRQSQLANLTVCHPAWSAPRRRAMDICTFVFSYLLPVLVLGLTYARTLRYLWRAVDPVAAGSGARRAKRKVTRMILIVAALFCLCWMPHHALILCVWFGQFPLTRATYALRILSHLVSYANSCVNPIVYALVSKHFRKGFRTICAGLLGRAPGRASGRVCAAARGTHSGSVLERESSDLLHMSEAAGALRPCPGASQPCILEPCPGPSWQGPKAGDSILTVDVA
Insulin prom inh = TRM-6 insulin promoter activity inhibition. actives 0.9% (n = 130,000). AID 1273. TRM-6 cells (human fetal islet line), insulin promoter-eGFP reporter, imaging; reporter expression induced with tamoxifen. inhibition, % at 2 µM;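 active = inhibition above the mean plus 3 SD, with well images judged a real hit on visual review, cut at about 60% in these data, passing the limit was not always enough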
Insulin prom inh cell count = second read-out of Insulin prom inh, no call of its own (marks repeat the call); normalized cell count, %; measured here: cell count, toxicity; reference of the scale not given here;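 cells exposed to compound for 48 h; stained nuclei by imaging scaled within each plate; lower means fewer cells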
HSV replic up primary fold = further read-out of HSV replic up, marked with its call; fold increase; compound at 10 µM; measured here: primary screen fold increase 10 uM; tested in PC3 cells;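 GFP signal in the first replicate; 1 = infected wells without compound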
* marks the source's active call; other numbers are inactive results; i = inactive; / = no result given; & = joins results of further samples. Outcome played no part in choosing rows; overall some 1.3% were active at least once.

Values in the order: PKD1 inh, HSV replic up, HSV replic up primary fold, RGS16-Gao, GALR2 agonist, Insulin prom inh, Insulin prom inh cell count
> CCOC(=O)CN(C(=O)CSc1nnc(CNc2ccc(C)cc2C)n1CC)c1ccccc1
 : -4.0, /, /, 65.4, -1.2, /, /
> Cc1cc(NC2CCCCC2)nc(NCc2ccccc2)n1
 : -7.3, i, 0.68, 110.1, -1.4, -57.1, 111.2
> CN(C)S(=O)(=O)c1ccc(NC(=O)Cn2ccsc2=N)cc1
 : -3.9, i, 1.13, 101.0, /, /, /
> COc1ccc(NS(=O)(=O)c2ccc3nc(COc4cccc5ccccc45)[nH]c3c2)cc1
 : 0.2, i, 0.75, 101.8, -1.3, 0.0, 108.6
> CCOc1nc(NC(=O)NS(=O)(=O)c2cccc(Cl)c2)nc(-c2ccccc2)n1
 : -5.4, i, 0.94, 100.7, -0.8, 59.3, 107.3
> O=C1NCC(O)=C1C=NC12CC3CC(CC(C3)C1)C2
 : -7.6&6.5, i, 0.89&0.67, 106.4, -0.8&-2.4, -21.9&-6.5, 103.5&65.8
> CCS(=O)(=O)c1ccc(O)c(NC(=O)COc2ccc(OC)cc2)c1
 : 3.2, i, 0.92, 106.1, -1.4, 0.0, 192.4
> N#CC(C#N)=Cc1ccc(OCC(=O)N2CCOCC2)cc1
 : -3.8, /, /, 103.9, /, -61.5, 77.4
> COC(=O)C1=C(C)NC(=O)/C1=C\c1cc(C)n(-c2cccc(C)c2)c1C
 : -12.0, i, 1.08, 95.6, -0.9, /, /
> COc1ccc(CN2CCN(C(C)C)C(CCO)C2)cc1Cn1cccn1 (stereo unspecified)
 : 1.0, i, 1.18, 69.7, /, /, /
> Cc1cccc(NC(=O)C2c3ccccc3C(=O)N3CCc4ccccc4C23)n1 (stereo unspecified)
 : -11.9, i, 1.04, 107.3, -0.3, /, /
> CCOC(=O)CN1C(=O)C(O)=C(C(C)=O)C1c1ccc([N+](=O)[O-])cc1 (stereo unspecified)
 : -7.1, i, 0.91, 134.8, -1.3, 17.4, 70.7
> Cc1cc(=O)c2ccccc2s1
 : -2.8, i, 0.97, 106.0, -1.9, -65.8, 43.5
> CCOC(=O)N1CCC(N2CCN(S(=O)(=O)c3ccc(Cl)cc3)CC2)CC1
 : 0.2, i, 0.75, 99.9, -1.0, -37.5, 108.2
> CCc1nnc(NC(=O)C2CCCN2S(=O)(=O)c2ccc(C)cc2)s1 (stereo unspecified)
 : 3.9, /, /, 110.5, 0.1, -10.5, 97.7
> CC1CC1C(=O)OCC(=O)c1c(N)n(C)c(=O)n(C)c1=O (stereo unspecified)
 : 2.1, i, 0.91, 93.0, /, 0.0, 102.8
> COc1ccc(NC(=O)N2CCN(S(C)(=O)=O)CC2)c(OC)c1
 : 7.4, i, 0.92, 98.3, /, /, /
> C/C(=N/NC(=O)OC(C)(C)C)c1ccco1
 : -5.1, i, 0.97, 97.0, 0.0, 25.0, 105.4
> O=C(CSc1ncc(-c2ccc(F)cc2)[nH]1)NCc1ccco1
 : -9.7, i, 0.54, 91.6, -2.0, /, /
> COc1cc(CCC(=O)Nc2cccc(S(=O)(=O)N(C)C)c2)cc(OC)c1OC
 : -15.2, i, 0.93, 98.7, 0.1, 0.0, 116.1
> CCc1ccc(/C=C2/C(=O)N(C)C(=S)N2CC(=O)OC)s1
 : -0.2, i, 1.01, 101.3, /, 23.1, 120.9
> O=C(CCN1C(=O)c2cccc3cccc(c23)C1=O)Nc1ccon1
 : -7.0, i, 0.85, 98.4, /, /, /
> COc1ccc(CNC(=O)C(=O)NCCCn2ccnc2)cc1
 : 2.3, i, 1.16, 100.7, /, -33.3, 122.6
> Cc1cc(C)nc(SCCN2CCOCC2)n1
 : 0.8, i, 1.02, 98.5, -3.2, 16.7, 49.2
> Cn1c(=O)c2c(nc(Oc3ccccc3)n2C)n(C)c1=O
 : 0.1, i, 0.955, 102.9&106.8, -1.7, 30.4, 128.5
> O=[N+]([O-])c1cccnc1N1CCC(c2cc(-c3ccc(Cl)cc3)n[nH]2)CC1
 : -0.9, /, /, 92.3, -3.0, -6.2, 196.2
> Cc1nc(C)c(C(=O)NNC(=O)Nc2ccc(Cl)cc2)s1
 : /, i, 0.84, 73.0, /, /, /
> Cc1ccc(OCc2nnc(SCC(=O)Nc3cc(C)on3)n2C)cc1
 : -2.4, i, 0.91, 100.8, -1.6, /, /
> Nn1c(Cc2ccccc2F)nnc1SCn1nnc2ccccc2c1=O
 : -6.9, i, 0.88, 39.0, -2.3, /, /
> COc1ccc(-c2ccc(=O)n(CC(=O)Nc3cccc(O)c3)n2)cc1OC
 : -5.4, i, 0.91, 105.2, -2.3, -33.3, 157.1

Filtered by structure: those above containing two or more sulfur atoms.
Values in the order: PKD1 inh, HSV replic up, HSV replic up primary fold, RGS16-Gao, GALR2 agonist, Insulin prom inh, Insulin prom inh cell count
> CN(C)S(=O)(=O)c1ccc(NC(=O)Cn2ccsc2=N)cc1
 : -3.9, i, 1.13, 101.0, /, /, /
> CCc1nnc(NC(=O)C2CCCN2S(=O)(=O)c2ccc(C)cc2)s1 (stereo unspecified)
 : 3.9, /, /, 110.5, 0.1, -10.5, 97.7
> CCc1ccc(/C=C2/C(=O)N(C)C(=S)N2CC(=O)OC)s1
 : -0.2, i, 1.01, 101.3, /, 23.1, 120.9

Other results
Values in the order: PKD1 inh, HSV replic up, HSV replic up primary fold, RGS16-Gao, GALR2 agonist, Insulin prom inh, Insulin prom inh cell count
> O=C(OCCN1C(=O)c2ccccc2C1=O)c1cccc(OC(F)F)c1
 : 3.4, i, 0.99, 99.2, -3.8, /, /
> O=C(Sc1nnnn1C1CCCCC1)c1cccs1
 : -0.8, i, 0.95, 112.8, 0.3, -70.3, 110.5
> CNC(=S)N/N=C/c1ccccc1Cl
 : -1.0, i, 0.96, 99.0, -1.2, 23.3, 94.4
> CN1C/C(=C\c2ccc(N3CCOCC3)cc2)C(=O)/C(=C/c2ccc(N3CCOCC3)cc2)C1
 : 4.0, i, 1.24, 103.0, -1.4, -16.7, 103.9
> CC(C)Cc1nc(SCC(=O)NCc2ccccc2)n[nH]1
 : 9.6, i, 0.77, 97.6, -2.8, -20.0, 55.9
> O=C(COc1ccccc1)NCC(=O)N/N=C/c1cc(Br)ccc1OCc1ccccc1
 : -6.9, i, 0.82, 118.8, 0.2, 17.1, 114.7
> COc1ccc(C2N(c3cc(Cl)ccc3OC)C(=O)C3CCCN32)c(OC)c1 (stereo unspecified)
 : -11.6, i, 0.79, 99.4, -0.3, /, /
> COc1ccc(C(=O)CSc2ncn[nH]2)cc1OC
 : 0.1, i, 0.85, 94.5, -0.9, 23.1, 106.2
> Cc1cccnc1NC(=S)NC(=O)c1cncc(Br)c1
 : -9.4, i, 0.99, 99.3, 0.0, -11.1, 172.8
> Cc1cccc(C(CC(=O)N2CCCC2)c2ccccc2)c1O (stereo unspecified)
 : -11.4, i, 0.87, 104.2, -2.2, -27.3, 136.7
> COc1ccc(/C=N/NC(=S)Nc2ccccc2)cc1COc1ccc(F)cc1
 : 5.5, i, 0.94, 106.2, -2.3, 3.2, 91.7
> COCCn1nnnc1CN1CCOCC1
 : 0.6, i, 0.73, 102.7, -3.9, 41.4, 115.7
> O=C(O)c1ccc(NC2=C(N3CCOCC3)C(=O)c3ccccc3C2=O)cc1
 : 9.7, i, 1.01, 102.6, -0.6, 19.4, 118.3
> CC(C)OC(=O)CC(=O)CSc1nc2c(cc1C#N)CCCCCC2
 : -3.1, i, 0.91, 110.1, 0.2, 10.0, 102.7
> COc1ccc(S(=O)(=O)N2CCCCCC2)cc1C(=O)OCC(=O)Nc1cc(C)on1
 : -0.2, i, 0.94, 99.6, /, -5.6, 60.0
> Cc1ccc(Nc2ccc(-n3ccnc3)nn2)cc1C
 : 2.8, i, 0.9, 96.8, -2.1, /, /
> Cn1nnc2c[n+](CC(=O)c3ccc4ccccc4c3)cc(Br)c21
 : /, i, 1.04, 97.9, /, /, /
> CCOC(=O)N1CC=C2C(C#N)=C(N)C(C#N)(C#N)[C@H](c3cccs3)[C@H]2C1
 : -10.3, i, 1.06, 111.3, -0.6, -20.0, 123.8
> CN(C)c1ccc(CN2CCCC(O)C2)cc1 (stereo unspecified)
 : -11.4, i, 0.97, 112.6, -0.7, -28.1, 52.2
> OCCNCC(O)Cn1ccc2ccccc21 (stereo unspecified)
 : -9.1, i, 1, 80.5, -1.3, -10.3, 112.1
> Cc1ccc(C(=O)Nc2cnc3ccccc3c2)cc1
 : -7.7, i, 0.9, 99.3, -1.7, 8.7, 96.7
> O=C(NCc1cccnc1)c1ccc(S(=O)(=O)N2CCCCC2)cc1
 : -6.1, i, 0.79, 93.3, -2.2, 6.2, 93.9
> COc1ccccc1-c1nc(SC)n[nH]1
 : 6.0, i, 0.94, 104.5, /, 5.3, 130.9
> CC(=O)Nc1ccc(S(=O)(=O)NCc2ccc(C(=O)NCc3ccc(Cl)cc3)cc2)cc1
 : 3.1, i, 1, 103.0, -4.5, -7.7, 116.8
> CCOC(=O)c1c(NC(=O)CN(C)C2CCN(C)CC2)sc(C(=O)Nc2ccccc2)c1C
 : -6.3, i, 0.9, 104.2, /, -45.5, 91.5
> NCCNc1ccc([N+](=O)[O-])c(NC2CC2)c1
 : 6.2, /, /, 96.8, -2.1, 38.5, 90.8
> CCOCCCNC(=O)C(c1ccc(OC)cc1)N(Cc1ccc2c(c1)OCO2)C(=O)CNC(C)=O (stereo unspecified)
 : 4.3, i, 0.87, 119.5, -0.6, -52.0, 108.8
> COc1cccc(N2CCN(c3c(C#N)c(C(F)(F)F)nn3C)CC2)c1
 : -0.5, i, 0.78, 100.9, -0.3, 27.6, 104.2
> CCOC(=O)N1CCN(C(=O)CSc2nc3c(cnn3-c3ccc(C)cc3)c(=O)[nH]2)CC1
 : 0.8, i, 0.93, 102.8, /, /, /
> O=C(CCC(=O)N1CCCC1)Nc1nnc(C(F)(F)F)s1
 : 2.7, i, 0.78, 95.6, -1.9, 64.3, 140.8
> O=c1c2ccccc2nnn1Cc1ccccn1
 : -19.3, i, 1.14, 96.1, -1.6, /, /
> COc1cc([C@@H]2c3cc4c(cc3[C@@H](O)[C@@H](CO)[C@@H]2CO)OCO4)cc(OC)c1O[Si](C)(C)C(C)(C)C
 : /, i, 0.85, 91.5, /, /, /
> CCN(CCCCCCN)c1ccc2c(=O)[nH][nH]c(=O)c2c1
 : 2.8, i, 0.91, 98.8, /, -5.0, 147.1
> Cc1cc(=O)n2nc(N3CCCC(C(=O)NCCc4ccccc4)C3)sc2n1 (stereo unspecified)
 : 11.6, i, 1.02, 97.6, -1.4, -42.3, 118.0
> O=C(COC(=O)CNC(=O)c1ccc(-c2ccccc2)cc1)NCc1ccco1
 : -3.4, i, 1.02, 101.3, /, /, /
> CC(C)c1cccc(OCCCCN(C)C)c1
 : -3.6, i, 0.9, 97.5, /, /, /
> Cc1ccc2oc(=O)c3cnn(CC(=O)N4CCCCC4C)c3c2c1 (stereo unspecified)
 : -21.3, i, 0.89, 97.3, 0.0, -42.9, 120.0
> CCOC(=O)C1CCCN(C(=O)c2cc(Nc3ccc(OC)c(OC)c3)nc3ccccc23)C1 (stereo unspecified)
 : -29.2, i, 0.917, 107.0, -2.2, 20.0, 127.7
> CSc1nc(-c2ccco2)nn1C(=O)c1cccs1
 : -7.3, i, 1.11, 84.9, -0.6, 24.1, 147.1
> CC(CCc1ccccc1)N(C)CC(O)c1cccc([N+](=O)[O-])c1 (stereo unspecified)
 : /, i, 1.17, 101.6, /, /, /
> CCCc1nc2ccc(NC(=O)c3cccs3)cc2c(=O)n1Cc1ccccc1Cl
 : -1.6, i, 0.68, 99.7, -0.2, 20.7, 126.3
> COc1cccc(CN2CCN(Cc3nc(C(C)C)cs3)CC2CCO)c1 (stereo unspecified)
 : -1.9, i, 0.98, 103.5, /, /, /
> COCCNC(=O)c1ccc2c3n(nc2c1)-c1ccc(C)cc1CO3
 : /, i, 0.9, 106.8, /, /, /
> CC(=O)N1CCN(CCN=CC2=C(O)CC(c3ccc(Cl)cc3)CC2=O)CC1 (stereo unspecified)
 : -0.1, /, /, 109.0, -0.8, /, /
> Cc1ccc(C2C3=C(CC(C)(C)CC3=O)Nc3onc(C)c32)cc1 (stereo unspecified)
 : -3.1, i, 1.09, 140.8, -0.6, 50.0, 97.3
> CCc1ccc(Nc2cc(C(=O)NCCCN3CCOCC3)c3ccccc3n2)cc1
 : -1.1, /, /, 96.7, -2.3, /, /
> COc1ccc(NC(=O)Cc2ccccc2F)cn1
 : -5.4, i, 1.06, 101.9, /, 35.7, 115.4
> COc1cc(C=NCC2OCCc3ccccc32)cc(OC)c1 (stereo unspecified)
 : -5.8, i, 1, 108.3, -1.7, -29.6, 84.3
> COc1nnc(-c2ccc(N3CCOCC3)c(NC(=O)c3ccco3)c2)c2ccccc12
 : -10.1, i, 0.76, 100.5, -0.5, 48.6, 123.6
> Cc1ccc(NC(=O)[C@@H]2CCCN2S(=O)(=O)c2ccccc2F)cc1
 : /, i, 0.98, 99.4, /, /, /

Screening data (PubChem BioAssay)
